# nsP2pro primary – Primary qHTS for inhibitors of NSP2Pro chikungunya virus (CHIKV). Polyprotein P1234 (Chikungunya virus (strain S27-African prototype)), Q8JUX6. FRET peptide cleavage, nsP2pro, fluorescence 1 h. Potency, µM (doses to about 24.9 µM), for inactives: at the highest dose activity change, negative = inhibition, usual class: inhibitors. 31,000 compounds, 1.1% hits. AID 1964107, 2024; active means well fitted inhibition curve with a large enough effect; inconclusive means small, poorly fitted or top-dose-only effect; inactive means no such curve, though single readings can be large or run the other way; also: nearly all actives have a fitted effect of over 60% in size; a reference inhibitor and vehicle were the controls
# Starred values were filed as active, the others as inactive; i = inactive; ? = inconclusive; & = joins results of further samples; [ ] = remark or other dose. % is scaled to controls: 0 for no effect and ±100 for the full control effect; potency is read from the fitted curve at half-maximal effect.
SMILES	nsP2pro primary
COc1ccc(/C=C/C(=O)O[C@@H]2[C@@H](O)[C@@H](O)[C@H](O[C@@H]3C=C(CO)[C@H]4[C@H](O[C@@H]5O[C@H](CO)[C@@H](O)[C@H](O)[C@H]5O)OC=C[C@H]43)O[C@H]2C)cc1O	10.8%[10 µM]
COc1cccc(CNc2ccc(S(=O)(=O)Nc3cccc(N4CCNCC4)c3)cc2)c1O	-19.0%
CCOC(=O)c1c(-c2ccccc2)csc1NC(=O)c1nc(SCC)ncc1Cl	-21.4%
CS(=O)(=O)c1ccc(C(=O)OCC(=O)N2CCOCC2)cc1[N+](=O)[O-]	-28.3%
Cc1ccc2nc(-c3ccc(Cl)c(NC(=O)c4cccnc4)c3)oc2c1	-23.0%
NS(=O)(=O)Nc1ncnc(OCCOc2ncc(Br)cn2)c1-c1ccc(Br)cc1	?
Cc1csc(CNc2ncnc3cc(-c4ccc5c(c4)OCO5)ccc23)n1	i
COCCNc1nc(C)nc2c1CCN(C(=O)c1ccoc1)CC2	3.3%
Cn1ccnc1CN1CCN(CC2(O)CNCCOC2)CC1 (configuration not stated)	i
COC(=O)c1c(NC(=O)CCCOc2ccccc2C)sc2c1CCC(C)C2 (configuration not stated)	-18.3%
CSc1ccc(-c2cncc(NC(=O)c3cccs3)c2)cc1	?
CC(=O)Nc1sc2c(c1-c1ccco1)CCNC2	?

# Four compounds picked at random from the list so far:
SMILES	nsP2pro primary
COc1cccc(CNc2ccc(S(=O)(=O)Nc3cccc(N4CCNCC4)c3)cc2)c1O	-19.0%
CCOC(=O)c1c(-c2ccccc2)csc1NC(=O)c1nc(SCC)ncc1Cl	-21.4%
NS(=O)(=O)Nc1ncnc(OCCOc2ncc(Br)cn2)c1-c1ccc(Br)cc1	?
Cc1ccc2nc(-c3ccc(Cl)c(NC(=O)c4cccnc4)c3)oc2c1	-23.0%

# More structures follow:
SMILES	nsP2pro primary
COC(=O)[C@@H](O)[C@H]1[C@@]2(C)CC3(O)[C@@H](C(=O)[C@H]2O)[C@]24O[C@]25CC(=O)O[C@@H](c2ccoc2)[C@]5(C)CCC4[C@]13C (some centres not stated)	17.2%[10 µM]
COc1ccc(NC(=O)CCc2ccnc(N3CCCC3)c2)c(OC)c1	i
CCC(C)C(=O)O[C@H]1[C@@H](OC(=O)c2ccoc2)C[C@](C)(O)[C@]23OC(C)(C)[C@H](C[C@H](OC(=O)c4ccoc4)[C@]12COC(C)=O)[C@H]3OC(C)=O (some centres not stated)	-3.8%[10 µM]
CCCS(=O)(=O)N1C[C@@H]2C[C@H](C1)c1c(-c3ccccc3)ccc(=O)n1C2	?
CN(C(=O)c1cc(-c2ccccc2O)on1)c1ccccc1	5.4%
O=C(C1CC1)N1CCc2cc(Br)cc(S(=O)(=O)N3CCN(c4ccccc4F)CC3)c21	-18.7%
CNc1nnc(-c2cccc3ccccc23)o1	-1.9%
CCC[C@H]1CN(C(=O)c2ccc3c(c2)NC(=O)CN3)C[C@@H]1N	-1.6%
Cc1ccc(NC(=O)Cn2nnc(C(=O)NCc3ccc4c(c3)OCO4)c2N)cc1Cl	-13.9%
Cc1ccc2c(c1)c(=O)c1ccccc1n2CCCC(=O)Nc1cc(Cl)ccc1C	-22.4%
O=C(Cn1c(SCCOc2ccccc2Cl)nc2ccccc21)N1CCOCC1	-7.3%
N[C@@H](C(=O)N[C@@H]1C(=O)N2C(C(=O)O)=C(Cl)CS[C@H]12)c1ccccc1	0.8%[5.1 µM]

# Further structures.
SMILES	nsP2pro primary
c1ccc(-c2ccc(C(c3ccccc3)n3ccnc3)cc2)cc1 (configuration not stated)	461.5%&124.7%[activator]
Cc1nn(CC(=O)NCc2ccccc2Cl)c(=O)c2cccn12	-18.7%
O=C(NOC[C@H](O)CO)c1ccc(F)c(F)c1Nc1ccc(I)cc1F	?
NC(=O)[C@@H]1C[C@]2(NC(=O)NC2=O)c2cc(F)ccc2O1	6.1%
CC(C)(C)c1ccc(SC2=NS(=O)(=O)c3ccccc32)cc1	-2.5%
Cc1nc(NCCO)c2nc(-c3ccccc3)n(CC3CCN(C)CC3)c2n1	-5.7%
O=C(c1cccnc1)N1CCC12Cc1ccccc1NC2=O (configuration not stated)	4.2%[39.2 µM]
Cc1ccc(S(=O)(=O)Nc2cnccc2C(=O)Nc2nc(-c3cc4ccccc4o3)cs2)cc1	-7.0%
Cc1ccc(F)c(C(=O)NC(C)c2cnn(-c3ccccc3)c2C)c1Cl (configuration not stated)	4.9%
OCCc1ccc(O[C@@H]2O[C@H](CO)[C@@H](O)[C@H](O)[C@H]2O)c(O)c1	-9.6%
CCc1ccccc1NC(=O)c1ccc(=O)n(Cc2ccc(F)cc2)c1	-18.4%
C=CCNc1nc(C)nc2c1CCN(C(=O)Cc1nnc(N)s1)CC2	4.9%

# (cont.)
SMILES	nsP2pro primary
COc1ccc(NC(=O)C2=C(C)Nc3ncnn3C2c2ccc(C)o2)cc1 (configuration not stated)	-14.3%
COc1cc(O)cc2c1C(=O)OC(C)CCCCCCC2 (configuration not stated)	144.7%[activator]
CCOC(=O)C1CCN(C(=O)CNC(=O)Nc2ccccc2Cl)CC1	-8.5%
O=C(O)CC1CCC(c2ccc(-c3ccc(Nc4ccc(C(F)(F)F)nc4)cn3)cc2)CC1 (configuration not stated)	-17.7%
CC(C)c1c(-c2cnn(C(C)(C)C)c2)nc2c(C#N)c[nH]n2c1=O	-4.0%
C=C[C@H]1CN2CC[C@H]1C[C@@H]2CNC(=O)Nc1ccc(Br)cc1	4.6%[39.2 µM]
CCC(C)NC(=O)CCCc1nnc2n(CC(C)C)c(=O)c3sccc3n12 (configuration not stated)	-14.1%
Cc1ccc(OCCn2c(CCNC(=O)CCN3CCCCC3)nc3ccccc32)cc1	-3.0%
COc1nccc(N2CCC(CC(=O)NCCCN3CCCC3=O)CC2)n1	i
CC(C)CN(CCNC(=O)CCN1N=C(c2ccccc2)CCC1=O)CC(C)C	-18.8%
O=C(NCCN1C(=O)C2(CCCCC2)C1c1ccccc1)NCc1ccccc1 (configuration not stated)	-8.2%
CCc1ccc(-n2c(=O)c3ccc(C(=O)NCCc4ccccc4)cc3n(Cc3ccccc3C#N)c2=O)cc1	-5.7%

# An excerpt of these results, with each value named:
COc1ccc(NC(=O)CCc2ccnc(N3CCCC3)c2)c(OC)c1
  nsP2pro primary = i
O=C(C1CC1)N1CCc2cc(Br)cc(S(=O)(=O)N3CCN(c4ccccc4F)CC3)c21
  nsP2pro primary = -18.7%
Cc1ccc(S(=O)(=O)Nc2cnccc2C(=O)Nc2nc(-c3cc4ccccc4o3)cs2)cc1
  nsP2pro primary = -7.0%
O=C(O)CC1CCC(c2ccc(-c3ccc(Nc4ccc(C(F)(F)F)nc4)cn3)cc2)CC1 (configuration not stated)
  nsP2pro primary = -17.7%

# Following part
SMILES	nsP2pro primary
CCn1cc(-c2ccc(F)cc2)cc1C(=O)O	16.6%
COCC(=O)NC[C@H]1CCN(Cc2scnc2C)C[C@H]1N(C)C	-4.4%
CCNC(=O)c1ccc(NC(=O)N2CCCCc3ccccc32)cc1	-15.5%
COC(=O)C1=C(CS(=O)(=O)c2ccc(C)cc2C)NC(=O)NC1c1ccc(C)cc1 (configuration not stated)	-9.3%
O=C(Nc1ncc(Cc2ccc(C(F)(F)F)cc2)s1)c1cn(-c2ccccc2)cn1	-4.0%
CCN(CC)c1cc(NC2CCCCC2)c2c3c(onc13)-c1ccccc1C2=O	-22.0%
CN(CC1CCOCC1)C(=O)NCc1ccco1	-19.1%
CC(=O)OC1CCC2(C)C(CCC3(C)C2CC=C2C4CC(C)(C)CCC4(C)CCC23C)C1(C)C(=O)O (configuration not stated)	?
CCN(CC)c1cc(CCC(=O)N2CCN(c3cccc(OC)c3)CC2)ccn1	1.6%
CC(=O)OCC(=O)[C@@]12OC3(CCCC3)O[C@@H]1C[C@H]1[C@@H]3CCC4=CC(=O)C=C[C@]4(C)[C@@]3(F)[C@@H](O)C[C@@]12C	1.1%
CC(=O)c1c(C)oc2c1cc(NS(=O)(=O)c1ccc(C(C)(C)C)cc1)c1ccccc12	-28.0%
O=C(OCC#CCSc1nnc(-c2cccc3ccccc23)o1)c1ccc(F)cc1F	-0.1%

# Arranged by molar mass (low to high): part of the list above
SMILES	nsP2pro primary
CNc1nnc(-c2cccc3ccccc23)o1	-1.9%
O=C(Nc1ncc(Cc2ccc(C(F)(F)F)cc2)s1)c1cn(-c2ccccc2)cn1	-4.0%
CC(=O)OCC(=O)[C@@]12OC3(CCCC3)O[C@@H]1C[C@H]1[C@@H]3CCC4=CC(=O)C=C[C@]4(C)[C@@]3(F)[C@@H](O)C[C@@]12C	1.1%

# Continued:
SMILES	nsP2pro primary
Cc1ccc(-c2ccc(=O)n(CC(=O)NCc3ccccc3)n2)cc1	-3.7%
CS(=O)(=O)N1Cc2ccccc2CC2(CCCN2Cc2cccnc2)C1 (configuration not stated)	-7.3%
O=C(c1cnc(N2CCCCC2)c2ccccc12)N1CCN(c2ccc(F)cc2)CC1	-15.1%
Cc1ccccc1CN1CCC(CNC(=O)c2c(C)oc3ncnc(N4CCCCC4)c23)CC1	-8.7%
O=C1CCCC2=C1C(c1ccncc1Cl)N=C(Nc1nc3ccccc3o1)N2 (configuration not stated)	-0.5%
Cn1c(C(=O)NCc2ccccc2F)cc2oc3ccccc3c21	-11.1%
O=C(NC1CCN(C(=O)c2ccc(-c3cncnc3)cc2)CC1)c1ccccc1F	i
CC(=O)N1CCC(C2CCN(C(=O)c3nn(C)c4ccccc34)C2)CC1 (configuration not stated)	2.5%
COc1cccc(-n2nnc(-c3nc(-c4cccs4)no3)c2N)c1	-11.2%
O=C(CSc1cn(CCNC(=O)c2ccccc2F)c2ccccc12)Nc1ccccc1F	-10.1%
Cc1noc(C)c1-c1csc(N2CCC(C(N)=O)CC2)n1	-1.5%
Cc1nc(-c2ccc(S(=O)(=O)N3CCN(c4ccc(F)cc4)CC3)cc2)co1	-13.2%

# Later entries:
SMILES	nsP2pro primary
CCc1cccc(NC(=O)[C@@H]2CN(S(C)(=O)=O)C[C@H]2c2ccncc2)c1	5.0%
Cn1c(=O)c(F)c(Nc2ccc(I)cc2F)c2c(=O)n(CC(O)CO)cnc21 (configuration not stated)	30.1%[activator]
N#Cc1c(-c2cccc(O)c2)no[n+]1[O-]	2.0%
CCOC(=O)c1ccc(-c2ccc(/C=C(\C#N)c3nc4ccc(C)cc4[nH]3)o2)cc1	-9.4%
c1ccc(CN(Cc2nc(-c3ccccn3)no2)CC2CC2)cc1	i
O=C(CN1C2=NCCN2c2ccccc21)c1ccc(-c2ccccc2)cc1	165.9%[activator]
COCCN(Cc1ccco1)C(=O)c1cc2c(=O)[nH]c3ccc(C)cc3c2s1	-15.8%
Cn1c(CCCC(=O)O)nc2cc(N(CCCl)CCCl)ccc21	9.88µM*
CCN(C(=O)Cn1cc(C(=O)c2ccc(F)cc2)c(=O)c2ccc(C)nc21)c1cccc(C)c1	?
Cc1nn(C(=O)c2c(F)cccc2F)c(C)c1S(=O)(=O)N1CCCCCC1	-27.2%
CN(C)C[C@@H]1CN(Cc2ccccn2)C[C@H]1NC(=O)c1n[nH]c2ccccc12	i
Cn1c(Cn2ccc(C(F)(F)F)c(Oc3cc(Cl)cc(C#N)c3)c2=O)n[nH]c1=O	-5.6%&-15.1%

# Next entries.
SMILES	nsP2pro primary
C=CCNC1=C2C[C@@H](C)C[C@H](OC)[C@H](O)[C@@H](C)/C=C(\C)[C@H](OC(N)=O)[C@@H](OC)/C=C\C=C(/C)C(=O)NC(=CC1=O)C2=O	-23.5%
O=C(CSc1nccn1-c1cccc(Cl)c1)Nc1ccc2c(c1)OCO2	-32.5%
Cc1cn(C)c(CC(=O)NCc2ccccc2Cl)c1C(=O)O	-14.5%
CCCc1cc(=O)oc2c3c(ccc12)OCN(Cc1ccccc1OC)C3	31.7%
Cc1cnc(-c2ccccc2C(C)C)nc1NCc1cccs1	1.2%
OCC1(O)CCCN(Cc2cnc(NCc3ccccc3)nc2)C1 (configuration not stated)	-0.7%
CC12CCC3c4ccc(O)cc4CCC3C1CCC2O (configuration not stated)	-6.7%
COc1ccc(-c2nc3ccccc3s2)cc1NC(=O)c1ccc(C#N)cc1F	-22.3%
Cc1cc2ncc(C(=O)N3CCOCC3)cn2n1	i
CCc1ccc(OCC(=O)Nc2ccc3c(c2)c2ccccc2n3CC)cc1	-15.5%
Cc1cc(-c2ccc(N=Nc3c(S(=O)(=O)O)cc4cc(S(=O)(=O)O)cc(N)c4c3O)c(C)c2)ccc1N=Nc1c(S(=O)(=O)O)cc2cc(S(=O)(=O)O)cc(N)c2c1O	192.7%[activator]

# An excerpt. The share of hits here may be higher or lower than overall.
